KCNQ2 pot: potentiators of rat KCNQ2 potassium channel; B-score at 10 µM; CHO-K1 KCNQ2, FluxOR thallium flux fluorescence; hits give high values; 0.54% of 310,000 active; AID 2239, 2010;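 active = fluorescence ratio B-score at least 3 SD of library B-scores, with initial fluorescence B-score within 3 SD, cut at about 5.3 in these data; same plate scores as AID 2156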;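 note: B-score of peak minus minimum over baseline fluorescence ratio after K+ and Tl+ stimulus; positive B-score means potentiation of KCNQ2 with more thallium influx and brighter signal; only the inactives scoring about 0 or higher are listed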
Target sequence (O88943 whole entry, looked up): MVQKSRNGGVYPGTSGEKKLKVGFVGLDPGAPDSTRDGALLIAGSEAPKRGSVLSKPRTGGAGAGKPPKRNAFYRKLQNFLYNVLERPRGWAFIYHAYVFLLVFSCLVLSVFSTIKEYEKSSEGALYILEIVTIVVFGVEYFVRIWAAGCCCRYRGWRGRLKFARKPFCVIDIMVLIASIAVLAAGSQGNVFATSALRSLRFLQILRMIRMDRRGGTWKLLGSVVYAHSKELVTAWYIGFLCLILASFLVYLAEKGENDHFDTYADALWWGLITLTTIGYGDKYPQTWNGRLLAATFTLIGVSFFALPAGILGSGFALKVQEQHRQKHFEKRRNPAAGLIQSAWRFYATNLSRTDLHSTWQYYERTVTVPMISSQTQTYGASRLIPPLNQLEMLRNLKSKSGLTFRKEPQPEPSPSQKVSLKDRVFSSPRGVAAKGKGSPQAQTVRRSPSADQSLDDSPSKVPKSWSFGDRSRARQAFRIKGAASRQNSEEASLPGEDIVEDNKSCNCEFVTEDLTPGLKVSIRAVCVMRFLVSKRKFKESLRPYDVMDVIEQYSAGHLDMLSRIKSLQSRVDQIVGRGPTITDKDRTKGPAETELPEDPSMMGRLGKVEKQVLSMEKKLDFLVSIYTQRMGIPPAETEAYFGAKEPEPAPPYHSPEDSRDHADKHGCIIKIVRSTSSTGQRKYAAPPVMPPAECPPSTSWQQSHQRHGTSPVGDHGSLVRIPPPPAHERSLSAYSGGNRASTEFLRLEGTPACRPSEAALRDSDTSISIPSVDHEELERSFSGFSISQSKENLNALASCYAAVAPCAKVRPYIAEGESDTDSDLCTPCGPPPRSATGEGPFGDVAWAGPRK
KCNQ2 pot baseline: further read-out of KCNQ2 pot, marked with its call; B-score; compound at 10 µM; measured here: initial fluorescence intensity artifact check;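 brightness before thallium and not channel activity; 0 = typical well and far values either way flag optical interference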
* = called active by the depositor. An excerpt; the hit share may differ from the screen's.

KCNQ2 pot,KCNQ2 pot baseline,Molecule
1.4,0.34,c1csc(-c2nn[nH]n2)c1
0.67,1.9,O=C(NCc1ccco1)c1nnc(Cc2ccc(F)cc2)o1
2.5,-0.95,CCCNC(=O)OCC12CC3CC(CC(C3)C1)C2
0.94,1.6,COc1cc(NS(=O)(=O)c2cn(C)cn2)cc(OC)c1
1.9,0.28,CCc1nnc(NS(=O)(=O)c2ccc(N/C=C/C(=O)c3ccc(C)cc3)cc2)s1
0.5,0.96,CCN(C(=O)COC(=O)c1cccc(NS(=O)(=O)c2ccc(F)c(F)c2)c1)C1CCS(=O)(=O)C1 (stereo unspecified)
1.1,0.59,COC(=O)c1ccc(C(=O)OC)c(NC(=O)CSCc2ccccc2Br)c1
1,0.81,COc1ccc(NC(=O)CSc2n[nH]c(C(C)C)n2)c([N+](=O)[O-])c1
0.03,2.6,COc1ccc(CN2CCC(Cc3ccccc3)CC2)cc1OC
0.01,-0.2,COCCN1Cc2cccc(C(=O)Nc3ccccc3OC)c2C1=O

Carrying on.
KCNQ2 pot,KCNQ2 pot baseline,Molecule
0.03,0.56,Cc1cc2sc3ccc(C#CC4(O)CCCCC4)cc3c(=O)c2cc1C
1.1,-1.5,Cc1ccc(S(=O)(=O)N(Cc2cccc(C)c2)C(=O)N2CCN(C)CC2)cc1
0.54,-0.2,O=C(O)COc1ccccc1/C=N/NC(=O)CSc1nc2ccccc2n1Cc1ccccc1
0.06,2.1,COc1ccc(-c2nc(SCC(=O)NCc3ccco3)c(-c3ccccc3)[nH]2)cc1OC
2.4,-0.79,O=S(=O)(c1cccc2nonc12)N1CCCCCC1
0.54,-0.13,O=c1c2cc(-c3ccccc3)sc2nc2n1N=C(c1ccccc1)CS2
1.8,-1.1,CCC(CC)NC(=O)COC(=O)c1ccc2c(c1)C(=O)N(Cc1ccco1)C2=O
0.38,0.67,CCc1nc(SCC(=O)NCCc2ccc(OC)c(OC)c2)c2c(=O)n(C)c(=O)n(C)c2n1
0.79,-1.5,COCCCNC(=O)COc1ccc(S(=O)(=O)NCc2ccccc2)cc1Cl
0.93,-1.2,Cn1cnnc1SC1CCCCC1NS(=O)(=O)c1ccc(Cl)cc1 (stereo unspecified)

Further results follow:
KCNQ2 pot,KCNQ2 pot baseline,Molecule
0.21,-0.66,COc1ccc(OC)c(NC(=O)C2=C(C)NC(=O)NC2c2cccs2)c1 (stereo unspecified)
1.5,-1.4,CCOC(=O)CSc1nc(N)nc(C)c1Br
0.08,-0.31,O=C(CN1CCN(c2ccc(F)cc2)CC1)Nc1ccc(S(=O)(=O)N2CCOCC2)cc1
0.84,0.68,O=C(CN1CCCCCC1)NCCN1C(=O)S/C(=C\c2ccccc2Cl)C1=O
0.8,-1,Cc1cc2oc(=O)ccc2cc1[N+](=O)[O-]
2,-0.07,CCOc1nc2ccccc2nc1NS(=O)(=O)c1ccc(Cl)cc1
0.49,1.3,Cc1cc(C)cc(NC(=O)Nc2c(Br)cnn2C)c1
0.36,0.56,COc1ccc(-c2noc(C)c2-c2ccc3ccccc3n2)c(O)c1
0.02,1.6,CCC(C)(C)NC(=O)CN(C(=O)CCC(=O)Nc1nccs1)c1ccc2c(c1)OCCO2
2.6,-0.89,O=C(CC1SC(N2CCCC2)=NC1=O)Nc1ccc(C(=O)Nc2ccccc2)cc1 (stereo unspecified)

Going on with the list.
KCNQ2 pot,KCNQ2 pot baseline,Molecule
0.71,-2.1,Fc1cccc(CN2CCN3CCCC3C2C2CCCCC2)c1 (stereo unspecified)
0.29,-2.6,CNS(=O)(=O)c1ccc(C(C)(C)C)cc1
0.21,-0.78,COc1ccccc1NC(=O)C1CCCN1C(=O)NC1CCCCC1 (stereo unspecified)
0.69,-0.38,CCCC/C(O)=N\S(=O)(=O)c1ccc(N=NN(C)C)cc1
0.71,0.63,COc1ccc(N(CC(=O)Nc2cccc(C)c2)S(=O)(=O)c2c(C)noc2C)cc1
1.1,1.1,COC(=O)C1CCN(Cc2ccc(OCCCN3CCN(c4ccc([N+](=O)[O-])cc4)CC3)cc2)CC1
0.3,-0.14,O=C(NCc1ccccc1)NC(O)C(Cl)(Cl)Cl (stereo unspecified)
2.2,-1.7,O=C(NCc1ccc(Cl)cc1)c1ccc(NC(=O)C2CCCO2)cc1 (stereo unspecified)
0.65,-1.4,O=C(C1CCCCN1S(=O)(=O)c1ccccc1)N1CCCCC1 (stereo unspecified)
1,-1.3,CC(C)C(C)NC(=O)COc1ccc(OCc2ccccc2)cc1 (stereo unspecified)

Further results follow.
KCNQ2 pot,KCNQ2 pot baseline,Molecule
0.27,-2.9,CCSc1nnc(Cn2c(=O)sc3ccccc32)n1C
0.2,-1.4,CCCNC(=O)c1cnc(Sc2ncc(C(F)(F)F)cc2Cl)n1C
3.5,0.33,CC(=O)c1ccc(NC(=S)NC(C)c2ccc(Cl)cc2Cl)cc1 (stereo unspecified)
0.09,-0.2,CCN(CC)c1ccc(C2NCC(c3ccc([N+](=O)[O-])cc3)O2)cc1 (stereo unspecified)
0.18,0.85,CCCCNC(=S)NNC(=O)c1cc(C2CC2)nc2ccccc12
0.19,0.01,O=C(c1ccc(Cl)cc1)c1c[nH]cc1-c1ccccc1
0.12,-0.05,N#C/C(=C\c1cccs1)C(=O)NCc1ccco1
0.53,-0.76,COc1ccc(Cc2noc(CN(C)C3CC(C)(C)NC(C)(C)C3)n2)cc1OC
0.07,1.2,CCOC(=O)N1CCC(NC(=O)C(Cc2ccccc2)NC(=O)C2CCCCC2)CC1 (stereo unspecified)
0.02,-0.21,O=C(COC(=O)CNS(=O)(=O)c1c(Cl)cccc1Cl)Nc1cccnc1Cl

Going on with the list.
KCNQ2 pot,KCNQ2 pot baseline,Molecule
0.51,0.52,O=C(COc1ccccc1Cl)Nc1ccc(N2CCCC2)cc1
0.1,0.26,O=C(Nc1nnc(CCc2ccccc2)s1)c1cccc(F)c1
0.7,-0.03,Cc1ccc(S(=O)(=O)C(CCC(=O)c2ccc(Cl)cc2)C(N)=O)cc1 (stereo unspecified)
0.2,-0.18,CCc1n[nH]c2c1/C(=N/O)CCC2
0.07,1,CCCCn1cnc2c(cnn2-c2ccc(F)cc2)c1=O
0.13,1.2,COc1ccc(-c2noc(-c3ccccc3C(=O)N3CCOCC3)n2)cc1
0.03,0.02,C=CCC1(CC=C)CCCN1C(=O)Cn1nnnc1CN(C)C(C)C
1.1,-0.24,CC(C)C(=O)NC(c1ccc(N(C)C)cc1)c1c(O)ccc2ccccc12 (stereo unspecified)
0.02,1,Cc1cccc(NC(=O)CSc2nnc(CCNC(=O)OC(C)(C)C)o2)c1C
1.4,-0.09,O=C(O)CSc1c2c(nc3cc(C(=O)N4CCCC4)ccc13)CCCC2

Following part:
KCNQ2 pot,KCNQ2 pot baseline,Molecule
1,-2.6,Cc1ccc2c(CC(=O)OCc3csc(C)n3)coc2c1
0.28,-0.5,CCCn1nnc(NC(=O)c2ccc(-c3ccccc3)cc2)n1
1.1,0.1,Cc1cc(C)nc(NS(=O)(=O)c2ccc(NC(=O)c3ccccc3[N+](=O)[O-])cc2)n1
0.55,0.54,CSCCC(NS(=O)(=O)c1ccccc1)C(=O)OCc1nc2ccsc2c(=O)[nH]1 (stereo unspecified)
0.46,0.01,COC(=O)c1cn(-c2ccccc2)nc1-c1ccncc1
1.2,0.18,O=C1CC(c2ccco2)Sc2nc3ccccc3n21 (stereo unspecified)
0.11,0.47,COc1ccc(-n2nc([N+](=O)[O-])c(=NCCc3cccc(C)c3)n2O)cc1
0.44,0.02,CCOc1ccc(CN(C)c2nc(-c3cccnc3)nc3ccccc23)cc1OC
1.7,0.78,Cc1ccc(NC(=O)CSc2ncc3ccccn23)cc1
0.14,-0.12,Cc1cccc(NC(=S)Nc2ccccn2)c1

Going on with the list.
KCNQ2 pot,KCNQ2 pot baseline,Molecule
0.68,-1.1,CCOC(=O)c1sc(NCCNc2nc(C)c(C(=O)OCC)s2)nc1C
0.06,0.27,S=C(NC1CC1)N1CCCc2ccccc21
0.33,-1.6,O=C(c1ccc(Cn2cc(Br)cn2)o1)n1cccn1
0.91,0.63,COc1ccc(NC2CC(=O)N(c3ccc(C(=O)O)cc3)C2=O)cc1 (stereo unspecified)
0.33,-0.01,C=C1CCN([C@H](C(=O)NCc2ccco2)C(C)C)S(=O)(=O)c2ccccc21
0.67,0.33,CCOc1ccccc1C(=O)n1nc2nc(C)cc(C)c2c1N
0.01,0.92,CCOc1ccc(-c2csc3ncn(-c4ccc(OC)cc4)c(=O)c23)cc1
7.6*,0.65*,Cc1ccc(NC(=O)C2CC2c2ccccc2)cc1 (stereo unspecified)
0.65,-0.37,Cc1ccc(C)c(N(CC(=O)Nc2ccc(-c3nc4ccc(C)cc4s3)cc2)S(C)(=O)=O)c1
0.65,0.29,CC(C)(C)NC(=O)CN(C(=O)CS(=O)CC(=O)Nc1ccc(F)cc1)c1ccccc1 (stereo unspecified)

Carrying on.
KCNQ2 pot,KCNQ2 pot baseline,Molecule
4,-0.81,COc1cccc(NC(=O)c2ccc3nsnc3c2)c1
0.31,0.05,CCCCOC1(c2ccccc2)NC(=S)NN=C1c1ccccc1 (stereo unspecified)
1.7,-0.59,COc1ccccc1NC(=O)CC(=O)c1ccccc1
0.18,-0.37,OC(CNCCc1ccccc1)c1ccccc1 (stereo unspecified)
1.6,0.82,COc1ccc(C(=O)C2CCN(C(=S)NCC3CCCO3)CC2)cc1 (stereo unspecified)
0.9,0.08,CC(C)(C)C(=O)N1CCCC1C(=O)O (stereo unspecified)
0.93,-0.31,CC1(C)CC(Nc2ccc(C(F)(F)F)cc2[N+](=O)[O-])CC(C)(C)N1
0.63,-0.76,COc1ccc(Cc2noc(-c3ccccc3)n2)cc1OC
0.19,0.26,O=C(O)c1ccc(Oc2c(C(F)(F)F)oc3cc(O)ccc3c2=O)cc1
0.86,-0.51,O=C(NC1CCCCCCC1)c1ccc2c(c1)N(Cc1ccc(F)cc1)C(=O)CS2=O (stereo unspecified)

Carrying on.
KCNQ2 pot,KCNQ2 pot baseline,Molecule
0.27,1.4,COc1ccc(N(Cc2cc3cccc(C)c3[nH]c2=O)S(=O)(=O)c2ccc(OC)cc2)cc1
0.71,-0.54,Cc1ccc(S(=O)(=O)CCc2nnc(NC(=O)c3ccco3)s2)cc1
1.3,-0.38,COC(=O)c1ccc(NC(=O)Cn2nc(C)cc2C)cc1
0.25,0.32,CC(=O)c1n[nH]nc1NC(=O)c1ccccc1
2.5,0.14,COc1ccccc1C(=O)NCCC(=O)NN1C(=O)NC2(CCCCC2)C1=O
2.1,-0.01,Cc1ccc(O)c(C(=O)CC(=O)c2ccccc2Cl)c1
0.5,0.05,COc1ccc(CCC(=O)Nc2ccc(C)c([N+](=O)[O-])c2)cc1
1.4,0.29,CN(c1ccc(C(=O)Nc2ccccc2C(=O)N2CCOCC2)cc1)S(C)(=O)=O
0.67,1.3,CCOC(=O)c1ccc(CNC(=O)C2CCC(=O)N(CCc3ccccc3)C2)o1 (stereo unspecified)
0.48,-0.66,COc1ccc(CCNC(=O)C(=O)NCC2OCCN2S(=O)(=O)c2ccc3c(c2)OCCO3)cc1OC (stereo unspecified)

Further compounds.
KCNQ2 pot,KCNQ2 pot baseline,Molecule
1.5,0.19,CCOC(=O)c1c(S(=O)(=O)Nc2ccc(F)cc2C)c(C)n(C)c1C
6.2*,-0.17*,O=C(NC1=C(NC2CCS(=O)(=O)C2)C(=O)c2ccccc2C1=O)c1ccccc1 (stereo unspecified)
1.3,-0.65,COc1ccc(N2CC(C(=O)NCc3cccnc3)CC2=O)cc1 (stereo unspecified)
1.6,0.23,Cc1cc(C)n(-c2nc(SCC(=O)N3CCCC3)c3c4c(sc3n2)CCCC4)n1
0.8,-1,CC(OC(=O)c1ccc(Cl)nc1)C(=O)NC1(C#N)CCCCC1 (stereo unspecified)
1.7,-1.5,O=C(O)c1ccc(N/N=C/c2cccc(F)c2)cc1
0.08,0.87,CN(C)S(=O)(=O)N1CCC(Oc2ccc(C(=O)NCc3cnn(C)c3)cc2)CC1
1.1,0.67,Cc1ccc(-c2nnc(SCC(=O)NC3CC3)n2N)cc1
1.6,-0.01,COc1ccc(N2CCN(C(=O)C(=O)c3c[nH]c4ccccc34)CC2)cc1
0.69,0,O=C(COC(=O)CCS(=O)(=O)c1ccc(Cl)cc1)NC1CCCCC1

(next part)
KCNQ2 pot,KCNQ2 pot baseline,Molecule
0.16,-0.26,COc1ccc(CCN(Cc2cccs2)S(=O)(=O)c2ccc(S(=O)(=O)N3CCC(C)CC3)cc2)cc1OC
0.33,-0.53,COC(=O)c1ccc(Cl)c(NC(=O)c2cccc([N+](=O)[O-])c2C)c1
0.05,-0.05,O=C(Nc1ccccc1)c1ccccc1NC(=O)c1ccccc1C(=O)O
0.72,-1.2,O=C(NCCc1ccccc1)C(=O)NCC1OCCN1S(=O)(=O)c1ccc([N+](=O)[O-])cc1 (stereo unspecified)
0.76,0.36,Fc1ccc(-n2c(-c3cccs3)nc3nc4ccccc4nc32)cc1
0.53,-0.57,CCOC(=O)c1sc(NC(=O)CCN2C(=O)c3cccc([N+](=O)[O-])c3C2=O)c(C(=O)OCC)c1C
0.98,0.67,C/C=C/C=C\C(=O)Nc1cccc(C2=NOC3(C2)C[C@@H](C(N)=O)N(C(=O)/C(C)=C/C)C3)c1 (stereo partly specified)
0.18,3.3,CCOc1ccc(CNC(=O)CCc2cn(C)c3ccccc23)cc1
0.05,-0.88,COc1ccccc1N(CC(=O)NCCSCc1ccc(Cl)cc1)S(C)(=O)=O
0.79,0.01,COc1cc(C(C)=O)ccc1OCc1cc(C(=O)N2CCSCC2)no1

Reformatted with each value named: part of the list above
COc1cc(C(C)=O)ccc1OCc1cc(C(=O)N2CCSCC2)no1
  KCNQ2 pot = 0.79	KCNQ2 pot baseline = 0.01

COC(=O)c1ccc(Cl)c(NC(=O)c2cccc([N+](=O)[O-])c2C)c1
  KCNQ2 pot = 0.33	KCNQ2 pot baseline = -0.53

CCOC(=O)c1sc(NC(=O)CCN2C(=O)c3cccc([N+](=O)[O-])c3C2=O)c(C(=O)OCC)c1C
  KCNQ2 pot = 0.53	KCNQ2 pot baseline = -0.57

C/C=C/C=C\C(=O)Nc1cccc(C2=NOC3(C2)C[C@@H](C(N)=O)N(C(=O)/C(C)=C/C)C3)c1 (stereo partly specified)
  KCNQ2 pot = 0.98	KCNQ2 pot baseline = 0.67

Screening data as filed in PubChem.
